# Screening data as filed in PubChem BioAssay.
# CapD inh = blocks the Bacillus anthracis CapD enzyme. purified CapD enzyme, fluorescence intensity read-out; stronger effect = lower value; some hits fall short of the stated cut. z-score (test concentration not listed). 0.23% of 140,000 active. AID 492967;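 active means z-score under -4 in either of two replicates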;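 further: stock transfer was 100 nL into about 40 µL; score is relative to mean and spread of the plate; one replicate is shown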
# AID504770 = growth inhibitors of E. coli YBA685 in a screen for V. cholerae RctB (chromosome II replication) inhibitors | E. coli YBA685 rctB-dependent plasmid, OD600 growth, 3 h; stronger effect = lower value | z-score (no concentration beside the values) | 0.27% of 130,000 active | AID 504770;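 active means z-score under -2 on both plates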;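 further: wells of about 30 µL received 100 nL stock; score is relative to mean and SD of the test wells; the first replicate is given; strong numbers were not always called active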
# The depositor's hits bear a star; · = not tested or not shown.
# Value order – CapD inh, AID504770
O=C(COC(=O)c1ccc(S(=O)(=O)NCc2ccco2)cc1)NCc1ccco1
→ ·, 1.8
COC(=O)c1sc(N)c(C(=O)OC)c1COc1ccccc1C#N
→ ·, 0.2
Cc1cccc(N(CCOC(=O)C2CC(=O)N(c3ccccc3)C2)C2=NS(=O)(=O)c3ccccc32)c1 (stereo unspecified)
→ 0.15, ·
CCCOc1ccc(C2C3=C(CCCC3=O)OC3=C2C(=O)CCC3)cc1OCC
→ -0.59, -0.25
CC(C)(C)C(=O)N1CCC(c2nc(-c3cccc(C(F)(F)F)c3)no2)CC1
→ -0.61, ·
CCN(Cc1ccccc1)Cc1cccnc1
→ 0, 0.8
CCCCc1ccc(-c2ccc(C#N)cc2)nc1
→ -0.055, -0.05
CN(C(=O)CSc1nnc(Cc2ccccc2)o1)C1CCCc2ccccc21 (stereo unspecified)
→ ·, -0.5
COc1ccc2c(C)nc(NC3=NCC(=O)N3)nc2c1
→ 12, -1
Cc1onc(-c2c(Cl)cccc2Cl)c1C(=O)N=S1CCC2(C1)OCCO2 (stereo unspecified)
→ 0.31, 0.1
O=C1CSC(=S)N1Cc1ccccc1
→ -0.31, -0.75
CCOC(=O)C1=C(C)NC(=O)NC1c1cn(-c2ccccc2)nc1C (stereo unspecified)
→ ·, 2.1
COc1ccc(Br)cc1CCNC(=O)CC1Cc2ccccc2C1
→ -0.025, ·
O=C1NC2CC3CC(C2)CC1C3
→ 0.11, 0.55
COc1cccc(OC)c1CN1CCC(N(C(=O)Nc2ccccc2C(F)(F)F)c2ccccc2)CC1
→ 0.12, ·
Cc1ccccc1C(=O)Nc1cc2c(s1)CCCC2
→ -0.36, 0.3
COC(=O)c1c(NC(=O)CSc2ncnc3sc(C)c(C)c23)sc2c1CCCC2
→ -0.86, ·
CCCN(CCC)S(=O)(=O)c1ccc(C(=O)Nc2ccc3sc(SC)nc3c2)cc1
→ 2.3, 0.1
Cc1ccc(N2C(=O)c3ccccc3NC2c2ccc(C)o2)cc1 (stereo unspecified)
→ ·, -0.45
COc1ccc(CCCOC(=O)N2CCN(c3ccccc3Cl)CC2)cc1
→ -0.32, ·

# Single values from the list.
# `CCOC(=O)C1=C(C)NC(=O)NC1c1cn(-c2ccccc2)nc1C` (stereo unspecified) in AID504770 is entered as 2.1
# `CCN(Cc1ccccc1)Cc1cccnc1` in AID504770 is entered as 0.8

# (more compounds)
# Value order – CapD inh, AID504770
CCOc1ccc2c(c1)=C(c1sc(NS(=O)(=O)c3ccc(C)cc3)nc1O)C(=O)N=2
→ -0.2, ·
Cc1ccc(N2C(=O)C(C)C(N3CCCCC3)C2=O)cc1 (stereo unspecified)
→ -0.85, 0.35
COc1ccc(N(/N=C2\Oc3ccc4c(C)cc(=O)oc4c3C2=O)C(C)=O)cc1
→ 10, -1.6
COC(=O)C1CCN(C(=O)CN(C)Cc2ccc(C(C)(C)C)cc2)CC1
→ ·, 0
CC1C(c2ccccc2)O/C(=N\S(=O)(=O)c2ccc(Cl)cc2)N1C (stereo unspecified)
→ 0.76, -0.35
CCOC(OCC)P(=O)(C(C)C)C(C)C
→ -0.06, -0.9
O=C(COc1ccc(Cl)cc1Cl)N=P(C1CCCCC1)(N1CCOCC1)N1CCOCC1
→ ·, -1
CC(C)Cc1nc2ccccc2n1C(C)C
→ 0.54, 0.6
O=C(Oc1ccc(Cl)cc1Cl)c1ccc(Br)o1
→ ·, -1.1
O=C1CSc2nnc(C3COc4ccccc4O3)n2N1 (stereo unspecified)
→ 0.29, 0.5
Cc1nnn(C23CC4CC(CC(C(=O)NC5CCCCCC5)(C4)C2)C3)n1
→ 0.38, 0.3
CC(C)(C)c1ccc(C(=O)Nc2ccc(S(=O)(=O)N(C3CC3)C3CCN(Cc4ccccc4)CC3)cc2)cc1
→ -0.68, ·
COc1cccc(CNc2cccc3cccnc23)c1O
→ ·, 1.5
CC(=O)OC12CC3CC(C1)C(=O)C(C3)C2
→ -0.025, 0.15
COc1ccc(C2NC(=O)c3c(sc4c3CCC(C(C)(C)C)C4)N2)c(OC)c1 (stereo unspecified)
→ -0.52, ·
CC1=NN(c2ccc(S(N)(=O)=O)cc2)C(=O)/C1=C/c1ccc(-c2ccc3c(c2)C(=O)OC3)o1
→ 2.7, ·
Brc1ccsc1-c1ccn[nH]1
→ 0.13, -1.1
O=c1nc(SCCc2ccccc2)nc2ccccn12
→ ·, 2.5
O=c1cc(Cn2cc(C(F)(F)F)cc(Cl)c2=O)[nH]c(=O)[nH]1
→ ·, -0.8
CN(C)c1ccc(/C=N/N=C(\C(=O)c2ccccc2)c2ccccc2)cc1
→ 0.045, ·
CC(=O)N/C(=C\c1ccccc1)C(=O)NCc1ccco1
→ 0.44, 0.35
OC(CSc1cccs1)CN1CCN(C(c2ccccc2)c2ccccc2)CC1 (stereo unspecified)
→ 0.75, 0
COc1ccc(C2C=C(C)Nc3nc4ccccc4n32)cc1 (stereo unspecified)
→ -0.19, -0.8
O=C(CSc1ncccn1)N1CCCC1
→ ·, 0.2
CC1N(C)c2cc(NC(=O)c3ccco3)c(P(=O)(Nc3cccc(C(F)(F)F)c3)N3CCOCC3)cc2C1(C)C (stereo unspecified)
→ ·, -0.35
COc1ccc(Cc2nc(S(=O)(=O)c3ccc(C)cc3)c(N3CCC(C)CC3)o2)cc1
→ 0.39, 0.8
O=C(OCCCc1nc2ccccc2[nH]1)c1cccs1
→ 0.055, 0.85
COc1cc(C2CC(=O)Nc3nc(SC)[nH]c(=O)c32)ccc1OCC(N)=O (stereo unspecified)
→ -0.16, 0.15
COC(=O)c1cc(NC(=O)COC(=O)CN2C(=O)C3CC=CCC3C2=O)cc(C(=O)OC)c1 (stereo unspecified)
→ ·, 0
N#CCCC1CCCCCCCCCCC1=O (stereo unspecified)
→ 0.35, 0.5
COC(=O)/C(=C/c1ccc2c(c1)OCO2)NC(=O)c1ccco1
→ -1.3, -0.8
CCc1nc2c(oc3ccccc32)c(=O)[nH]1
→ -0.61, -0.4
COc1ccccc1N1CCN(C(=O)C2CCCN2C(N)=O)CC1 (stereo unspecified)
→ ·, 1.7
CC1CCC(NC(=O)c2ccc(CSc3nc4ccncc4[nH]3)cc2)CC1 (stereo unspecified)
→ 0.015, -1.1
CC(=O)NCc1c(-c2c(Cl)cccc2Cl)noc1C
→ 0.21, -1.1
C#CCn1c(=O)c(=O)n(CCOC)c2ccc(C(F)(F)F)cc21
→ 0.98, ·
CC(Sc1nnnn1C)C(=O)C12CC3CC(CC(C3)C1)C2 (stereo unspecified)
→ ·, -0.7
CN(C(=O)c1cc2ccccc2o1)c1c(N)n(Cc2ccccc2)c(=O)[nH]c1=O
→ ·, -0.75
CC(=O)N1CCN(C(=O)CSc2nc3ccc(Cl)cc3c(=O)n2-c2ccc(F)cc2F)CC1
→ ·, 0.6
O=C(c1ccc(CS(=O)c2ccccc2)o1)N1CCN(c2ccccc2F)CC1 (stereo unspecified)
→ -0.75, 0.95
Cc1cc(C(=O)CS(=O)(=O)c2cccc(C(F)(F)F)c2)cc(C)c1O
→ -0.41, ·
CCOC(=O)c1[nH]c(COC(=O)[C@H](Cc2ccccc2)NC(=O)c2ccco2)c(C(=O)OCC)c1C
→ ·, 0.8
CN=C1c2cc3cc(OC)ccc3n2CCN1Cc1ccccc1
→ -1.2, 1.1
CCCNC(=O)c1ccc2c(c1)N(Cc1ccccc1)CCS2
→ 8.4, 1.4
COc1cccc(NC(=O)c2sc3nc4c(c(-c5ccco5)c3c2N)CCCC4)c1
→ -0.21, ·
CCCN(CCC)S(=O)(=O)c1ccc(C(=O)Nc2ccc(F)c(F)c2)cc1
→ 0.24, 0.35
CC(=O)NCc1ccc(C(=O)CSc2nnc(-c3cccs3)n2C2CC2)s1
→ ·, -1.4
CC(=O)N(CCCCN1C(=O)c2ccccc2C1=O)c1ccc(Cl)cc1
→ ·, 0.5
Cc1nc2ccccc2nc1C(=O)NCCN1CCN(c2ccccc2)CC1
→ -0.28, 1.6
C=CCn1c(=O)[nH]c2ccccc21
→ -0.25, 1.9
CCCC(O)=NS(=O)(=O)c1ccc(N=NN(C)C)cc1
→ ·, 2
Cc1ccc(-n2c3c(cc(C(=O)NCCc4c[nH]c5ccccc45)c2=O)C(=O)CC(C)(C)C3)cc1
→ -0.06, ·
C=CCc1cc(OC)ccc1O
→ ·, 0.25
CC(C)C(NC(=O)c1ccccc1)c1nnc(SCC(=O)Nc2nccs2)n1C (stereo unspecified)
→ -0.3, 1.4
Oc1ccc(/C=N/NC(=S)Nc2ccc(Cl)cc2Cl)c(O)c1O
→ ·, 0.95
Cc1ccc(CC(C#N)Sc2nnc(C)n2Cc2ccccc2)cc1 (stereo unspecified)
→ ·, 0.2
CCn1c(CCNC(=O)c2ccc(OC)c(OC)c2)nc2ccccc21
→ -0.18, -0.75
O=C(CSc1cc(Cl)ccc1Cl)NCCN1CCOCC1
→ -0.39, -0.9
O=C(ON=C1C2CC3CC(C2)CC1C3)c1ccc(Cl)cc1
→ -0.34, ·
Cc1ccc(C(=O)CC(c2ccco2)S(=O)(=O)c2ccccc2)cc1 (stereo unspecified)
→ -0.25, 1

# More records
# Value order – CapD inh, AID504770
Cc1cc(Cl)ccc1Oc1ccc(N)cn1
→ 14, ·
CSC1=C(C#N)C(c2ccccc2Cl)C(C(=O)c2ccccc2)=C(C)N1 (stereo unspecified)
→ -0.095, -0.2
O=C(CSCc1ccco1)c1ccc(F)cc1
→ ·, -0.2
c1ccc2c(c1)c(NCC1CCCO1)nn1nnnc21 (stereo unspecified)
→ 0.41, 0.05
O=C(OCC(=O)N1CCN(C(=O)c2ccco2)CC1)c1ccc2c(=O)n3c(nc2c1)CCC3
→ ·, 0.15
NCC(=O)NC(Cc1ccccc1)C(=O)O (stereo unspecified)
→ -0.3, ·
Cc1cc(C)n2nc(C(C)(C)C)c(Cl)c2n1
→ -0.12, -0.9
O=c1c2sccc2[nH]c(=S)n1Cc1ccccc1
→ ·, -0.15
COC(=O)Cn1c(=NC(=O)C2CC2)sc2c(C)cc(C)cc21
→ ·, 0.7
CC(CC(=O)O)CC(=O)Nc1cc(Cl)cc(Cl)c1 (stereo unspecified)
→ 0.77, 0.05
CCNc1nc(NCC)n2c(SCC(=O)N(CC)C3CCCCC3)nnc2n1
→ ·, 0.15
Cc1ccc(S(=O)(=O)N2CCCN(c3ncc(C(F)(F)F)cc3Cl)CC2)cc1Cl
→ 0.5, ·
CC(C)C(=O)Nc1cccc2nsnc12
→ -1.8, -1.8
c1ccc2c(c1)ncn2CC1CCCCC1
→ -0.44, -1.1
Nc1nnc(SCC(=O)Nc2nnc(SCC(=O)Nc3ccc(Cl)c(Cl)c3)s2)s1
→ -0.43, ·
CCc1c(C)[nH]c(N)nc1=S
→ -4.4*, -1.1
COc1ccc(/C=C2\CCCC3=C2N2c4ccccc4OC24/C(=C/c2ccc(OC)cc2)CCCC4C3)cc1 (stereo unspecified)
→ 1.4, ·
CCC(=O)Nc1ccc(NC(=O)CC)cc1
→ -0.095, -0.75
Cc1cc2c(cc1C)NC(=O)CC(c1ccccc1O)=N2
→ -0.8, 2.4
CC1=C(C(N)=O)C(c2ccccc2Cl)N2C(=O)CSC2=N1 (stereo unspecified)
→ ·, -0.3
N#Cc1c(F)cccc1N(Cc1cccnc1)C(=S)Nc1ccc(Cl)c(Cl)c1
→ 0.88, -1.2
FC(F)(F)c1cccc(-n2cc(-c3ccccc3)c3c(NCC4CCCO4)ncnc32)c1 (stereo unspecified)
→ 0.45, ·
O=C(COc1ccc2ccc(=O)oc2c1)NC(=O)Nc1ccc2c(c1)OCCO2
→ ·, 0.65
Cc1ccc(S(=O)(=O)Cc2ccc(C(=O)O)o2)cc1
→ -1.1, -0.15
O=C(Nc1ccc(-c2nc3ccccc3o2)cc1)c1ccc(C(F)(F)F)cc1
→ 1.7, ·
CCCN1CCC(NC(=S)Nc2ccc(C(=O)OCC)cc2)CC1
→ -0.52, 0.8
O=C1Oc2ccccc2C(=O)/C1=C\N1CCCc2ccccc21
→ ·, -0.65
CSC1=NCCN1CC(=O)c1ccc(C)cc1
→ 0.55, ·
CC1=NN(CCC#N)C(=O)/C1=C\c1ccc(N)cc1
→ ·, 1.2
O=C(Nc1ccc2c(c1)OC1(CCCC1)O2)C1CC(=O)N(C2CCCC2)C1 (stereo unspecified)
→ ·, 0.5
Cc1cc(NC(=O)c2ccc(Cl)cc2)c(C(C)C)c(S(=O)(=O)c2ccccc2)c1O
→ -0.045, -0.45
CSc1nnc(C2CCCN2C(=O)OC(C)(C)C)o1 (stereo unspecified)
→ -0.46, 1.3
O=c1[nH]cc(-n2c(=O)c3ccccc3c3ccccc3c2=O)c(=O)[nH]1
→ -0.7, -0.85
CCOC(=O)c1cc(-c2ccccc2)sc1NC(=O)c1ccc(C)cc1
→ -0.32, ·
O=C1CSC(=S)N1/N=C/c1cccs1
→ ·, -1.2
O=C1Nc2cc(C(=O)N3CC=C(c4ccccc4)CC3)ccc2Sc2ccccc21
→ -0.55, 0.4
CCc1cc2cc(C(=O)N3CCN(c4ccccc4)CC3)sc2s1
→ -0.32, 1.8
Cn1c(=O)c2cc(S(=O)(=O)NC(C(=O)N3CCc4ccccc43)c3ccccc3)ccc2n(C)c1=O (stereo unspecified)
→ 0.15, -0.7
CCc1ccc(S(=O)(=O)NCc2csc(C)n2)s1
→ -0.015, -0.2
COc1cc(CCNC(=O)OCC(C)C2CC=C(C)CC2)cc(OC)c1 (stereo unspecified)
→ -0.23, ·

# Whole records, quoted from the list. Order of screens: CapD inh, AID504770
# Results for `O=C(Nc1ccc(-c2nc3ccccc3o2)cc1)c1ccc(C(F)(F)F)cc1` : 1.7, ·
# Results for `O=C1CSC(=S)N1/N=C/c1cccs1` : ·, -1.2
# Results for `O=C(COc1ccc2ccc(=O)oc2c1)NC(=O)Nc1ccc2c(c1)OCCO2` : ·, 0.65
# Results for `Cn1c(=O)c2cc(S(=O)(=O)NC(C(=O)N3CCc4ccccc43)c3ccccc3)ccc2n(C)c1=O` (stereo unspecified) : 0.15, -0.7
# Results for `Cc1cc(NC(=O)c2ccc(Cl)cc2)c(C(C)C)c(S(=O)(=O)c2ccccc2)c1O` : -0.045, -0.45
